Source: PubChem (National Center for Advancing Translational Sciences (NCATS))
FEN1 inh: qHTS Assay for the Inhibitors of Human Flap endonuclease 1 (FEN1); Potency, µM (top dose mostly 114 µM), for inactives: at the highest dose activity change, negative = inhibition, hits mostly inhibitors; P39748; Recombinant FEN1 flap cleavage, fluorescence, 15 min; 390,000 compounds, 0.35% hits; further: nearly all actives have a fitted effect of over 65% in size
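Recombinant FEN1 (10 nM) was preincubated with pin-transferred compounds for 15 min at room temperature, then flap DNA substrate (50 nM final) was added. Plates were read at 0 and 15 min, and normalized concentration–response data were fitted to a four-parameter Hill equation.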
KAT2A inh: qHTS Assay for Inhibitors of GCN5L2 | GCN5L2 HAT assay, ThioGlo1 CoA-SH fluorescence | 390,000 compounds, 0.21% hits | Potency, µM (doses to about 58.9 µM), without a hit: at the top dose activity change, negative = inhibition, actives largely listed as inhibitors | Histone acetyltransferase KAT2A (Homo sapiens), Q92830
Target sequence (Q92830 whole entry, looked up): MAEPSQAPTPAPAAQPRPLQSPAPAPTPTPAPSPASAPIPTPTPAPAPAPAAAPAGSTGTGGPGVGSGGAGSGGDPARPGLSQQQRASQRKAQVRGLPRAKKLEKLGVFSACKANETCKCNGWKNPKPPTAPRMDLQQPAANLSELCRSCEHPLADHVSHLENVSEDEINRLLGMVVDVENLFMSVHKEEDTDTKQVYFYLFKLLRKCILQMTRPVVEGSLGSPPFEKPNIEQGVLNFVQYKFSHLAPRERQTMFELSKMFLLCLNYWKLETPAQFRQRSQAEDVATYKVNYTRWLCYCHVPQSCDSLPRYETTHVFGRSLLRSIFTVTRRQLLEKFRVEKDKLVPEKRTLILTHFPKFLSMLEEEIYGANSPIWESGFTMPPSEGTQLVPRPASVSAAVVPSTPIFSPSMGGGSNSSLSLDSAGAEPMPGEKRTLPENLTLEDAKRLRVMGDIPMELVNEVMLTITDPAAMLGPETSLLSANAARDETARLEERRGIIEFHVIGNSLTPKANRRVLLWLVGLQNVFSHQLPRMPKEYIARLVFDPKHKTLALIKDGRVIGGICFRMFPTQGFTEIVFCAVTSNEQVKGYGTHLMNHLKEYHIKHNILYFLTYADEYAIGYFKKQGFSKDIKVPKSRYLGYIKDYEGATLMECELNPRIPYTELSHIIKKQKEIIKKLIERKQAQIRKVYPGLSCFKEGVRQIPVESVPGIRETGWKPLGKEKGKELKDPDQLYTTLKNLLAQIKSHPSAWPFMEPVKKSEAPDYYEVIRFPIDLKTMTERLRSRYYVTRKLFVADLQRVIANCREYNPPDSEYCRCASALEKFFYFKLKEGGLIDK
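Free CoA generated was detected with ThioGlo1 (50uM) fluorescence at Ex340nm/Em540nm, read immediately and after 20 min at room temperature. Enzyme, 20 nM in HEPES pH 7.5 buffer, saw compounds 15 min before adding 75uM H3(1-25) peptide and 70uM acetyl-CoA.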
* = called active by the depositor; u = inconclusive; x = no result given; & = joins results of further samples; [ ] = another dose, or the depositor's remark. The call rests on the fitted dose curve; in most records, active means well fitted curve in the direction sought with a large enough effect; inconclusive means small, poorly fitted or top-dose-only effect, or another doubt; inactive means no such curve, though single readings can be large; an effect the other way counts as inactive or inconclusive. On the % scale 0 is the no-effect control and ±100 the full control effect; potency means the concentration at half of the fitted maximal effect. These rows are one share of the data, and most or all hits are left out here.

Every second line gives: FEN1 inh, KAT2A inh
- Cc1nc2c(sc3nc4c(cc32)COC(C)(C)C4)c(=O)n1Cc1ccccc1
→ -8%, -7%
- COc1ccc(/C=C2\SC(=O)N(CCC(=O)NC3CCS(=O)(=O)C3)C2=O)cc1 (configuration not stated)
→ -5%, -8%
- Cc1ccc(SCC(=O)N2CCCC2)cc1
→ 0%, 0%
- COc1ccc(C(=O)N2CCN(S(=O)(=O)c3ccc(Cl)cc3)CC2)cc1OC
→ -1%, 1%
- Cc1ccc(C(C)C)c(OCC(=O)NNC(=O)CC2OC(=O)c3ccccc32)c1 (configuration not stated)
→ 8%, -19%
- COc1ccccc1N1CCN(C2CCN(C(=O)c3cc(OC)c(OC)c(OC)c3)CC2)CC1
→ 5%, 2%
- S=C1NC(C23CC4CC(CC(C4)C2)C3)=CC(c2ccc3c(c2)OCO3)N1 (configuration not stated)
→ -2%, -3%
- Fc1ccccc1NC(=S)Nc1cccnc1
→ 10%, 0%
- Cn1c(=O)[nH]c2ccc([N+](=O)[O-])nc21
→ 7%, -5%
- CCN(CC)S(=O)(=O)c1ccc(-c2nnc(SCC(=O)Nc3ccc(OC)c(OC)c3)o2)cc1
→ -1%, -14%
- COc1cccc(C(=O)Nc2nnc(S(=O)(=O)N3CCOCC3)s2)c1
→ 15%&-1%, -21%&-11%
- O=C(Oc1ccc(=O)n(-c2ccccc2)n1)c1ccc(Cl)cc1
→ -5%, -11%
- Cn1c(COc2ccc(F)cc2)nc2ccccc21
→ 15%, -6%
- CCOC(=O)C(=CNCC(=O)O)C(=O)OCC
→ 6%, -1%
- CCOC(=O)N1CCN(Cc2nc(N)nc(Nc3ccccc3C)n2)CC1
→ 3%, 2%

Every second line gives: FEN1 inh, KAT2A inh
- CCCS(=O)(=O)c1nc(S(=O)(=O)c2ccc(C)cc2)c(N(C)Cc2ccccc2)s1
→ 8%, -1%
- O=C(O)c1cc(=O)c2cccc(O)c2[nH]1
→ 11%, -8%
- COC(=O)CCC(=O)Nc1cccc(Br)c1
→ 0%, -2%
- COc1ccc(NC(=O)Nc2nnc(N3CCC(C)CC3)s2)cc1OC
→ -1%, 2%
- COc1ccc(Nc2nc(C)cc(C)c2C(N)=O)c(OC)c1
→ -16%, -5%
- O=C(CC1c2ccccc2Oc2ccccc21)Nc1ccccc1F
→ -5%, 2%
- CC1CN(C2CCCCC2)c2nc3c(c(=O)[nH]c(=O)n3C)n2C1 (configuration not stated)
→ -2%, -5%
- OC(C#CCN1CCCC1)c1ccccc1 (configuration not stated)
→ -11%, -5%
- O=C(c1ccco1)N1CCN(C2CC(=O)N(c3ccccc3)C2=O)CC1 (configuration not stated)
→ 10%, 0%
- COCCN(C(=O)CCC(=O)Nc1ccccn1)C(C(=O)NCCC(C)C)c1ccc(OC)cc1 (configuration not stated)
→ 2%, 0%
- O=C(c1cccs1)N1CCCc2ccccc21
→ 7%, -4%
- Cc1cc(-c2ccco2)n(CC(=O)O)n1
→ -14%, -4%
- COc1ccc(Cn2c(=O)[nH]c3cc(C(=O)N4CCN(c5ccccc5F)CC4)ccc3c2=O)cc1
→ -3%, 1%
- Cc1ccc(C(=O)NNC(=O)c2cccc(C)c2)cc1
→ 2%, -8%
- Cc1ccc(-n2cc(C(=O)OCc3ccc(Cl)cc3)c3ccccc3c2=O)cc1
→ -11%, 16%

One compound at a time (already shown). Order of values: FEN1 inh | KAT2A inh
Entry for COc1ccc(Cn2c(=O)[nH]c3cc(C(=O)N4CCN(c5ccccc5F)CC4)ccc3c2=O)cc1 = -3% | 1%
Entry for COc1ccc(Nc2nc(C)cc(C)c2C(N)=O)c(OC)c1 = -16% | -5%

Additional structures:
Every second line gives: FEN1 inh, KAT2A inh
- O=C(CSc1ccc(-c2ccccn2)nn1)NC1CCCC1
→ -6%, -9%
- Cc1ccc(NC(=O)Cn2c(=O)n(Cc3nc(-c4ccccc4)no3)c(=O)c3ccccc32)cc1C
→ 0%, -4%
- Cc1ccc(S(=O)(=O)N(C)c2ccc(OCC(=O)N3CCCC(C(F)(F)F)C3)cc2)cc1 (configuration not stated)
→ 3%, -5%
- COCC(C)n1c(C)cc(C(=O)COc2ccc(C)nc2[N+](=O)[O-])c1C (configuration not stated)
→ -1%, -8%
- O=C1C=C(c2ccc(OC(F)(F)F)cc2)C[C@@H](c2ccc(Cl)cc2)C1
→ -4%, -14%
- Oc1ccc(-n2cnnn2)cc1
→ -2%, 1%
- O=C(NCCOc1ccccc1)c1ccc2c(c1)OCO2
→ -14%, 1%
- CC1(C)CC(=O)C/C(=N\NC(=O)Cc2ccccc2)C1
→ 4%, 1%
- Cc1ccc(S(=O)(=O)Nc2ccc(F)c(S(=O)(=O)N3CCOCC3)c2)cc1
→ -10%, -1%
- Cn1c(=O)oc2cc(S(=O)(=O)N3CCC(C(=O)N4CCc5ccccc5C4)CC3)ccc21
→ -4%, -7%
- CC(=O)Nc1ccc(S(=O)(=O)Nc2cccc(-c3ccc(N4CCCCCC4)nn3)c2)cc1
→ 2%, -8%
- COc1ccc(-c2nc3ccccc3o2)cc1NC(=O)c1ccc(-c2cccc(Cl)c2C)o1
→ 16%, -9%
- COc1ccc(CNS(=O)(=O)c2ccc(N3CCCCS3(=O)=O)cc2)cc1
→ -12%, -4%
- CCOC(=O)c1nnc(-c2ccc(C)cc2)nc1N1CCSCC1
→ -5%, -8%
- COc1ccccc1COCC(O)CN1CCN(S(=O)(=O)c2cccc(F)c2)CC1 (configuration not stated)
→ 18%, -2%

Every second line gives: FEN1 inh, KAT2A inh
- CCOC(=O)C1=C(C)NC(C)=C(C(=O)OCC)C1c1cccc(C)n1
→ 15%, -9%
- C1CN=C(NC23CC4CC(CC(C4)C2)C3)C1
→ 21%, -10%
- O=C(c1cccc(C(F)(F)F)c1)C1CCCN(C(=O)Cn2cncn2)C1 (configuration not stated)
→ 0%, -5%
- COc1ccccc1-c1nnc(SCC(N)=O)o1
→ -5%, -7%
- COc1ccc(-c2c(-c3ccc(OC)nc3)c3ccccc3n2C)cc1
→ -6%, -14%
- CNC1CCC(c2ccc(Cl)c(Cl)c2)c2ccccc21 (configuration not stated)
→ x, -8%
- CC1=C(/C=C/C(C)=C/C=C/C(C)=C\C(=O)O)C(C)(C)CCC1
→ 0%, -4%&7%&1%&10%
- CC1CCN(C(=S)c2cccc([N+](=O)[O-])c2)CC1
→ -6%, -14%
- O=C(Cn1c(C(=O)NCC2CCCO2)cc2sccc21)c1ccccc1 (configuration not stated)
→ -10%, -14%
- O=C(Nc1ccc2c(c1)OCO2)C1COc2ccccc2O1 (configuration not stated)
→ -12%, 2%
- CCc1cccc(C)c1NC(=O)CSc1nc2ccc(N3C(=O)c4ccccc4C3=O)cc2s1
→ -2%, -2%
- CCCCNC(=S)N(C)/N=C/c1c(F)cccc1F
→ -2%, -6%
- CCN(CC)Cc1c(C(=O)N/N=C/c2cccc(OCc3cccc(Cl)c3)c2)nnn1-c1nonc1N
→ -22%, -5%
- O=C(CNC(=O)c1cccs1)NCC(=O)OCc1ccc(Cl)cc1Cl
→ 4%, -22%
- Cc1cccc(NC(=O)C23CCC(C)(/C(=N/O)C2)C3(C)C)c1 (configuration not stated)
→ -4%, -6%

Every second line gives: FEN1 inh, KAT2A inh
- CC(C)CCn1c(=O)c2ccccc2n2c(CN3CCCC3)nnc12
→ -1%, -4%
- Cc1ccc(OCc2nc(C#N)c(NCc3ccco3)o2)cc1
→ -8%, -3%
- Cc1cccc(NC(=O)C2CCCN2S(=O)(=O)c2ccc(Cl)cc2)n1 (configuration not stated)
→ -14%, -20%
- CCCCn1c(SCC(=O)Nc2ccc(OC)cc2)nc2ccc(N3CCOCC3)cc2c1=O
→ -13%, 0%
- COc1cc(CNc2ccc3c(c2)ncn3C(C)C)cc(OC)c1OC
→ 18%, 4%
- CCCCC(=O)N/N=C(\C)CC(=O)Nc1ccccc1Br
→ -3%, -1%
- CCOC(=O)CSc1nnc(-c2cccnc2)o1
→ -8%, 1%
- CCc1c(C(=O)NNC(=S)NCC(C)C)csc1C
→ -4%, x
- CC1=C(C(=O)Nc2cc(C(=O)N3CCC(C)CC3)ccc2C)SCCO1
→ -7%, -23%
- CCn1nc(C(=O)Nc2ccc3nc(C)sc3c2)c2ccccc2c1=O
→ -1%, -3%
- CCN(CC)S(=O)(=O)c1ccc(N2CCCCC2)c(NC(=O)C2=COCCO2)c1
→ -13%, -8%
- CC(C)(C)N(Cc1ccccc1)C(=O)COC(=O)c1ccc2ccccc2n1
→ 10%, -2%
- Clc1ccc(-c2cn3nc4c(nc3n2)CCCC4)cc1
→ -1%, -13%
- CC(C)(C)n1ncc2c(=O)n(Cc3c(F)cccc3Cl)cnc21
→ -15%&14%, -5%
- CCOC(=O)c1cc2cc(OC)ccc2nc1C
→ 1%, -9%

Every second line gives: FEN1 inh, KAT2A inh
- CC(=NCc1ccco1)c1c(O)n(C2CCCCC2)c(=O)[nH]c1=O
→ -4%, -2%
- O=C(Nc1nc(-c2cccs2)cs1)c1ccco1
→ 2%, -6%
- NC1=NC(=O)C(Cc2cccc(Cl)c2Cl)S1 (configuration not stated)
→ -1%, -2%
- O=C(CSc1ncn(-c2ccccc2)n1)NCc1ccccc1
→ -5%, 0%
- COc1cccc2cc(C(=O)N(C)C)c(=O)oc12
→ -3%, -6%
- Clc1cccc(N2CCN(c3ncnc4nc[nH]c34)CC2)c1
→ 5%, -11%
- CCCN(CC(=O)Nc1ccccc1C)C(=O)C1CC(=O)N(c2cccc(C)c2C)C1 (configuration not stated)
→ -2%, 0%
- CCOC(=O)CCn1c(CC(=O)OCC)nc2ccccc21
→ 4%, 3%
- CCOC(=O)c1c(NC(=O)CSc2nnnn2-c2ccccc2)sc2c1CCC(C)C2 (configuration not stated)
→ -17%, 2%
- CCOc1ccc(CNC(=O)CCS(=O)(=O)c2cc3c4c(c2)CCN4C(=O)CC3)cc1OC
→ 19%, 31%[activator]
- O=C(CCNS(=O)(=O)c1ccc(OC(F)(F)F)cc1)N1CCCC1
→ 8%, -3%
- COc1ccccc1NC(CC(=O)c1ccccc1)C(=O)OCC(=O)c1ccc(C)cc1 (configuration not stated)
→ -12%, 1%
- Cn1c(=O)c2c(ncn2CC(=O)N(Cc2ccccc2)c2ccccn2)n(C)c1=O
→ 1%, -3%
- NS(=O)(=O)c1ccc(NC(=O)COC(=O)C2(c3ccc(F)cc3)CCCC2)cc1
→ -19%, -9%
- O=C(NCc1ccco1)C1CCCN(S(=O)(=O)c2ccccc2)C1 (configuration not stated)
→ 15%, -5%

Fetched by compound from the entries so far (6):
Every second line gives: FEN1 inh, KAT2A inh
- Cc1ccc(C(C)C)c(OCC(=O)NNC(=O)CC2OC(=O)c3ccccc32)c1 (configuration not stated)
→ 8%, -19%
- CC(=NCc1ccco1)c1c(O)n(C2CCCCC2)c(=O)[nH]c1=O
→ -4%, -2%
- OC(C#CCN1CCCC1)c1ccccc1 (configuration not stated)
→ -11%, -5%
- COc1ccccc1N1CCN(C2CCN(C(=O)c3cc(OC)c(OC)c(OC)c3)CC2)CC1
→ 5%, 2%
- CCn1nc(C(=O)Nc2ccc3nc(C)sc3c2)c2ccccc2c1=O
→ -1%, -3%
- Clc1cccc(N2CCN(c3ncnc4nc[nH]c34)CC2)c1
→ 5%, -11%

(more compounds)
Every second line gives: FEN1 inh, KAT2A inh
- O=C(CCc1nnc(C2CCCCC2)o1)N1CCN(C2CCCCC2)CC1
→ 5%, -5%
- CC(=O)c1cccc(NC(=O)CCS(=O)(=O)c2cccc3nsnc23)c1
→ -4%, -4%
- O=S(=O)(NC1CCCCC1N1CCCCC1)c1ccc(Cl)cc1 (configuration not stated)
→ 22%, -7%
- Cc1c(Br)c([N+](=O)[O-])nn1CC(=O)Nc1ccc(Cc2ccncc2)cc1
→ -25%, -5%
- COc1ccccc1NS(=O)(=O)c1ccc(C(=O)N2CCCC(C(F)(F)F)C2)cc1 (configuration not stated)
→ -18%, -3%
- COc1cccc(NC(C)C(=O)Nc2cc([N+](=O)[O-])ccc2Cl)c1 (configuration not stated)
→ -13%, -10%
- CC(C)(C)n1nc2c(c1NC(=O)c1ccco1)CS(=O)C2 (configuration not stated)
→ 10%, -2%
- COc1ccc(CCN(Cc2ccccn2)C(=S)Nc2ccccc2F)cc1OC
→ -3%, -6%
- COc1ccc(-n2c(C)nnc2SCC(=O)NC2CC2)cc1
→ 15%, -2%
- O=C(COc1ccccc1Cl)Nc1ccc2c(c1)C(=O)NC2=O
→ 13%, -5%
- CC(C)(C)c1ccc(S(=O)(=O)Nc2ccc(C(=O)N3CCCC3)cc2)cc1
→ -6%, -17%
- CC(=O)N1CCCc2cc(S(=O)(=O)N3CCC(C(=O)Nc4cccc(Cl)c4C)CC3)ccc21
→ 13%, -8%
- COC(=O)c1ccc(CN2CCC(CO)(Cc3ccccc3Cl)CC2)cc1
→ u, -1%
- COCCn1c(=NC(=O)CCS(=O)(=O)c2ccccc2)sc2cc(C)ccc21
→ 5%, -23%
- Cc1nonc1NC(=O)c1ccc(Cl)c(S(=O)(=O)N2CCCCC2)c1
→ 1%, -15%
- CC(C)n1cnc2c(N(C)c3cccc(Cl)c3)nc(N(CCO)CCO)nc21
→ 0%, -2%
- COc1ccccc1C(C)NC(=O)C1CCN(S(=O)(=O)c2cccs2)CC1 (configuration not stated)
→ -6%, -1%
- COc1ccc(NC(=O)Cc2ccsc2)cc1S(=O)(=O)N1CCCCC1
→ 0%, -8%
